# Ecoli rRNA inh: inhibits bacterial ribosomal RNA function over humanized ribosomes; E. coli WT GFP vs humanized-ribosome RFP mutants, fluorescence, 24 h; active compounds read low; DMSO median 0, no signal -100; GFP signal change (wild-type ribosome), % (no concentration beside the values); actives 1.6% (n = 350,000);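 active = significant combined selectivity score with lowered wild-type GFP, culture density cut under 30%, mutant RFP and density less affected; inactive = any of these conditions unmet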; also: one replicate is shown; some compounds called inactive have numbers as strong as hits
# FGF22 binding: FGF22 (human) thermal shift binding | calls only at 9.99 µM | actives 1.5% (n = 340,000) | recombinant FGF22 thermal shift, SYPRO orange fluorescence; percent of sucrose octasulfate shift, DMSO zero | Q9HCT0;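 active = melting point raised past a set limit in the mean and every replicate; three in four hits are not shown here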
# Target sequence (Q9HCT0 whole entry, looked up): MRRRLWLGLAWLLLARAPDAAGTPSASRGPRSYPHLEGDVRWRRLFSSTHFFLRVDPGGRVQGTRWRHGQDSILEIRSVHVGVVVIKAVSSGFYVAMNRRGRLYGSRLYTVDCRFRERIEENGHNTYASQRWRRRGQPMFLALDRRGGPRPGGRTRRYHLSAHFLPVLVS
# AF4-AF9 inh: inhibitors of human MLL-AF4/AF9 interaction | P42568 | AlphaScreen, biotin-AF4 peptide binding to FLAG-AF9 | inhibition, % at 10 µM | actives 0.47% (n = 350,000) | AID 651704;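 active = every replicate reaching a set inhibition limit, whatever the replicate mean, cut at about 25% in these data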;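 also: 0% = plate neutral control median and 100% = total signal loss; the record names both 10 and 1 µM as test concentration; the first replicate is given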
# Target sequence (P42568 whole entry, looked up): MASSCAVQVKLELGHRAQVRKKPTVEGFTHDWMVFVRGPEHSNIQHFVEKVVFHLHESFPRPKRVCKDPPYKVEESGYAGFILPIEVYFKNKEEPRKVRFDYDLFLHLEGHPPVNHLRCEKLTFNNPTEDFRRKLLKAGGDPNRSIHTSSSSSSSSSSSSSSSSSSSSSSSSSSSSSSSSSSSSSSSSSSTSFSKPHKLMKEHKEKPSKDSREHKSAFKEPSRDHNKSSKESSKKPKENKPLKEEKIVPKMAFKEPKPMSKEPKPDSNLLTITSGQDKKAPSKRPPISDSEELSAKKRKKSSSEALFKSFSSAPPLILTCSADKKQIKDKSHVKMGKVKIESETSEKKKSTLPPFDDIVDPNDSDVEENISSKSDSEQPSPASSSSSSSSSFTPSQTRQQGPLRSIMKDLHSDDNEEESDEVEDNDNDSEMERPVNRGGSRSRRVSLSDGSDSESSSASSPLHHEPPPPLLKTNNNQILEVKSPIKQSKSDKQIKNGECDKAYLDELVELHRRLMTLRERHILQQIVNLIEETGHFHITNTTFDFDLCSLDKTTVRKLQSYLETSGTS
# Ecoli rRNA inh OD600: also measured in Ecoli rRNA inh; calls as there; OD600 change, %; measured here: OD600 growth;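 optical density of the mix in the first replicate; 0 = DMSO median and -100 = no signal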
# Ecoli rRNA inh RFP: second read-out of Ecoli rRNA inh, no call of its own (marks repeat the call); RFP signal change, %; measured here: RFP humanized mutant strains;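 first replicate; 0 = DMSO median and -100 = no signal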
# * = called active by the depositor; i = inactive.
SMILES,Ecoli rRNA inh,Ecoli rRNA inh OD600,Ecoli rRNA inh RFP,FGF22 binding,AF4-AF9 inh
C[C@@H]1CN([C@@H](C)CO)C(=O)c2cc(NS(=O)(=O)c3cccs3)ccc2O[C@@H]1CN(C)S(=O)(=O)c1cn(C)cn1,4.2,4.8,-1.4,i,0.3
CCNC(=O)[C@@H]1[C@@H](CO)[C@@H]2Cn3c(ccc(C4=CCCC4)c3=O)[C@H]1N2C(=O)CC,2.3,-4.5,2.0,i,-0.1
COc1ccc(S(=O)(=O)N(C)C[C@H]2Oc3ccc(NC(=O)Cc4ccccc4)cc3CC(=O)N([C@@H](C)CO)C[C@H]2C)cc1,-3.6,-8.0,-0.2,i,0.1
Cc1ccc(S(=O)(=O)N[C@H]2CC[C@H](CC(=O)N3CCN(c4ccccc4)CC3)O[C@H]2CO)cc1,-6.7,-9.5,-0.9,i,-2.7
O=C(NCC1CC1)[C@H]1[C@H](CO)[C@H]2Cn3c(cccc3=O)[C@@H]1N2C(=O)c1ccccc1,0.9,8.6,-3.0,i,-1.8
C[C@@H]1CN([C@H](C)CO)C(=O)c2ccccc2-c2ccccc2CO[C@@H]1CN(C)Cc1ccc(C(F)(F)F)cc1,0.1,-5.7,8.8,i,-2.6
C[C@@H]1CNC(=O)c2c(C(=O)NC3CCN(C(=O)OC(C)(C)C)CC3)ncn21,8.2,11.0,-0.8,i,-3.8
COCC(=O)Nc1ccc2c(c1)C(=O)N(C)[C@@H]1CC[C@@H](CC(=O)NCC(F)(F)F)O[C@H]1CO2,-0.2,-1.2,0.8,i,-0.4
C[C@@H]1CN([C@H](C)CO)C(=O)c2cc(NC(=O)Nc3ccc(F)cc3)ccc2O[C@@H]1CN(C)C(=O)Nc1ccc2c(c1)OCO2,2.3,-9.8,-0.7,i,1.7
C[C@@H]1CN([C@H](C)CO)C(=O)c2cccc(NC(=O)Nc3ccccc3)c2O[C@@H]1CN(C)Cc1ccc(C(=O)O)cc1,11.1,7.6,-3.2,i,0.3
CC1(C(=O)NS(=O)(=O)Cc2cccc(Cl)c2)CCN1C(=O)C/C=C/c1ccccc1 (centres undefined),-9.7,-0.4,-1.3,i,-2.4
CCCNC(=O)Nc1ccc2c(c1)C(=O)N(C)C[C@@H](OC)[C@H](C)CN(C(=O)C1CCOCC1)[C@H](C)CO2,6.0,4.7,1.9,i,-0.4
CNC[C@@H]1Oc2cc(C#Cc3cccnc3)ccc2S(=O)(=O)N([C@H](C)CO)C[C@H]1C,3.8,1.8,-0.4,i,3.0
C[C@H](CO)N1C[C@H](C)[C@H](CN(C)C(=O)Nc2ccc3c(c2)OCO3)Oc2c(NC(=O)c3cnccn3)cccc2C1=O,1.9,-3.0,-1.6,i,-3.2
COc1ccc(CCNC(=O)C2CCN(Cc3nc(-c4ccc(Cl)cc4)oc3C)CC2)cc1OC,7.7,12.8,0.6,i,10.9
COc1cccc(-c2ccc3c(c2)O[C@@H](CN(C)Cc2ccncc2)[C@@H](C)CN([C@H](C)CO)S3(=O)=O)c1,-18.5,-24.0,-2.6,i,6.7
C[C@@H]1CN([C@@H](C)CO)C(=O)Cc2cc(NC(=O)Cc3cn(C)c4ccccc34)ccc2O[C@H]1CN(C)Cc1ccc(Cl)c(Cl)c1,-0.7,6.6,2.0,i,0.1
COc1ccc(NC(=O)Nc2ccc3c(c2)C(=O)N([C@@H](C)CO)C[C@@H](C)[C@H](CN(C)C(=O)Nc2ccc(OC)cc2)O3)cc1,2.0,-1.1,-2.0,i,0.0
CCOC(=O)[C@]12CCC=C1N(Cc1ccccc1)C(=O)[C@H](CC(=O)NCCC(C)C)C2,-23.5*,-15.4*,1.7*,i,-0.8
CC(C)NC(=O)N(C)C[C@H]1Oc2ccc(NC(=O)CCC(F)(F)F)cc2CC(=O)N([C@@H](C)CO)C[C@H]1C,3.9,1.1,-1.3,i,-3.6
C[C@H](CO)N1C[C@H](C)[C@H](CN(C)C(=O)C2CCOCC2)Oc2cc(C3=CCCC3)ccc2S1(=O)=O,-5.8,-15.5,1.7,i,-2.7
CN(C)C(=O)C[C@H]1C[C@H]2c3cc(NC(=O)NC4CCCCC4)ccc3O[C@H]2[C@H](CO)O1,-0.7,-0.3,-2.8,i,-1.5
COC(=O)[C@@]1(Cc2ccc(F)cc2)[C@H]2c3cc(C(=O)N4CCCC4)n(Cc4cc(C)n(C)n4)c3C[C@H]2CN1C(=O)c1ccccc1,-13.2,-18.4,-5.7,i,10.0
Cc1noc(C)c1S(=O)(=O)N(C)C[C@@H]1OCCCC[C@H](C)Oc2ccc(NS(=O)(=O)c3ccc(Cl)cc3)cc2C(=O)N([C@@H](C)CO)C[C@H]1C,-3.9,-3.0,-0.7,i,-1.4
CCNC(=O)C[C@H]1CC[C@@H]2[C@H](COC[C@H](O)CN2C(=O)Nc2c(C)noc2C)O1,2.9,-3.2,-6.5,i,-1.5
COc1ccc(NC(=O)N(C)C[C@@H]2Oc3ncc(C4=CCCC4)cc3C(=O)N([C@@H](C)CO)C[C@@H]2C)cc1,1.7,-5.1,1.8,i,-3.7
COc1ccc2c3c([nH]c2c1)[C@@H](CO)N(C(=O)Nc1ccc(F)cc1)CC31CN(S(=O)(=O)c2cn(C)cn2)C1,-2.9,7.4,-3.7,i,-0.3
COc1cccc(NC(=O)Nc2ccc3c(c2)OC[C@@H](C)NC[C@@H](C)[C@H](OC)CN(C)C3=O)c1,0.3,0.1,2.6,i,13.3
CO[C@H]1CN(C)C(=O)c2cc(NC(=O)Nc3ccccc3F)ccc2OC[C@@H](C)N(Cc2ccccc2C(=O)O)C[C@@H]1C,3.3,5.9,-1.0,i,-3.1
COCC(=O)N(C)C[C@H]1Oc2cc(C#C[C@@H](C)O)ccc2S(=O)(=O)N([C@H](C)CO)C[C@@H]1C,5.7,5.4,-2.0,i,-1.1
C[C@@H]1CN([C@@H](C)CO)C(=O)c2cc(NS(C)(=O)=O)ccc2O[C@H]1CN(C)Cc1ccc(C(F)(F)F)cc1,-1.2,-1.2,2.3,i,-5.8
COc1ccc(S(=O)(=O)N(C)C[C@@H]2Oc3ccc(NC(=O)NC4CCCCC4)cc3C(=O)N([C@H](C)CO)C[C@@H]2C)cc1,-1.3,8.9,-2.5,i,0.8
C[C@@H]1CN([C@H](C)CO)C(=O)c2cc(NC(=O)Cn3cnnn3)ccc2O[C@@H]1CN(C)S(=O)(=O)c1cccs1,4.6,13.1,-1.1,i,-1.0
C[C@@H]1CN([C@@H](C)CO)C(=O)c2cc(NC(=O)Cc3ccccc3)ccc2O[C@@H]1CN(C)Cc1ccc(C(F)(F)F)cc1,-4.4,-27.6,1.6,i,1.8
CC(=O)Nc1cc(-c2cccnc2)cn2c(-c3ccc(F)cc3)cnc12,1.0,18.1,4.2,i,-3.4
Cc1cc(C(=O)N2CCCC2(C)C(=O)NCC(C)C)nn1C(C)(C)C (centres undefined),2.7,5.8,-3.0,i,-0.2
C[C@H](O)[C@@H]1C(=O)N2CCc3ccc(N4CCN(C)CC4)cc3[C@@H]2C[C@@H]1N(C)C(=O)c1ccc(C#N)cc1,8.0,3.8,-1.7,i,-0.1
COc1ccc(CN(C)C[C@H]2OCCCC[C@@H](C)Oc3ccc(N(C)C)cc3C(=O)N([C@H](C)CO)C[C@H]2C)cc1,-0.8,0.0,-3.1,i,2.4
C/C=C/c1ccc([C@H]2[C@@H](CO)N3CCCCN(S(=O)(=O)c4cccc(C)c4)C[C@H]23)cc1,-57.0,-78.6,-9.7,i,5.3
Cc1noc(C)c1NC(=O)Nc1ccc2c(c1)C(=O)N([C@H](C)CO)C[C@H](C)[C@H](CN(C)S(C)(=O)=O)OCCCC[C@@H](C)O2,2.7,11.7,-1.0,i,0.1
Cc1cccc2c(=O)n(C(=O)c3ccccc3)c(N)nc12,9.8,33.5,3.6,i,-1.9
COc1cccc(C(O)c2ncc(-c3cccc(F)c3)[nH]2)c1 (centres undefined),2.0,-5.9,3.7,i,-10.1
Cc1cccnc1C(NC(=O)C1CCN(CCOc2ccc(Cl)cc2Cl)CC1)c1ccc(Cl)cc1 (centres undefined),-58.2,-72.8,-15.9,i,-0.7
O=S(=O)(c1cccs1)N1CCCCN2[C@@H](CO)[C@H](c3ccc(Br)cc3)[C@@H]2C1,-16.0,-59.5,15.0,i,0.9
CC(Oc1nc2c(c(=O)n(C)c(=O)n2C)n1C)C1CCCCC1 (centres undefined),-13.4,-43.8,-9.4,i,10.6
C(CCN1CCOCC1)CN1CCOCC1,12.7,29.4,0.6,i,0.8
C[C@@H]1CN([C@@H](C)CO)C(=O)c2cccc(NC(=O)Nc3ccc4c(c3)OCO4)c2O[C@@H]1CN(C)Cc1ccc2c(c1)OCO2,2.0,1.1,-2.9,i,7.1
CCCN1CCN(C(=O)c2ccc(CS(=O)c3ccc(Br)cc3)o2)CC1 (centres undefined),5.8,-0.5,1.5,i,-2.7
CCOC(=O)C1CCCN(C(=O)c2ccccc2OC(F)(F)F)CC1 (centres undefined),1.5,10.9,-1.1,i,0.1
COc1ccc2c3c(n(C)c2c1)[C@H](CO)N(CC1CC1)CC31CCN(C(=O)Nc2ccccc2)CC1,-1.7,-6.4,0.1,i,-1.3
Cc1cccc(S(=O)(=O)N(C)C[C@H]2OCc3cn(nn3)CCCC(=O)N([C@H](C)CO)C[C@H]2C)c1,0.0,-2.1,1.0,i,-1.0
Cc1ccc(-c2ccc([C@@H]3[C@@H](CO)N4C(=O)CN(C(=O)c5cccnc5)C[C@H]34)cc2)cc1,-5.1,-1.0,0.1,i,1.4
CC(=O)Nc1ccc(NC(=O)c2ccc(S(=O)(=O)N3CCCCCC3)cc2)cc1,1.2,6.1,-2.8,i,-2.4
CCc1csc(N2[C@H](C#N)[C@@H](c3ccc(-c4ccc(F)cc4)cc3)[C@@H]2CO)n1,-21.4,-59.9,20.6,i,2.4
C[C@@H]1CN([C@@H](C)CO)C(=O)c2cc(NC(=O)C3CC3)ccc2O[C@@H]1CN(C)Cc1ccc(C(=O)O)cc1,4.2,10.8,-1.3,i,-0.9
CCCC#Cc1cnc2c(c1)C(=O)N([C@@H](C)CO)C[C@H](C)[C@@H](CN(C)Cc1ccccc1)O2,2.6,6.2,-2.8,i,7.2
C[C@@H]1CN([C@@H](C)CO)C(=O)c2cc(C#Cc3cccc(F)c3)cnc2O[C@H]1CN(C)CC1CCOCC1,4.2,7.5,2.1,i,4.8
C[C@@H]1CN([C@H](C)CO)C(=O)c2cccc(NS(=O)(=O)c3cn(C)cn3)c2O[C@H]1CN(C)Cc1ccc(-c2ccccc2)cc1,0.7,3.7,0.5,i,5.1
O=C(Nc1cccc(F)c1)N1C[C@@H]2[C@H](c3ccccc31)[C@@H](CO)N2C(=O)C1CCOCC1,-0.7,13.8,-1.5,i,-3.5
CO[C@H](CN(C)C(=O)c1cnccn1)[C@@H](C)CN([C@@H](C)CO)S(=O)(=O)c1ccc(C)cc1,5.2,17.6,-4.8,i,0.6
# The listing continues:
SMILES,Ecoli rRNA inh,Ecoli rRNA inh OD600,Ecoli rRNA inh RFP,FGF22 binding,AF4-AF9 inh
C[C@@H]1CN([C@@H](C)CO)C(=O)c2cc(C#CC3CCCCC3)cnc2O[C@H]1CN(C)C(=O)c1ccncc1,2.8,7.9,7.5,i,4.9
COc1ccc(C2Nc3cccc(O)c3C(=O)N2Cc2ccccc2)cc1COc1ccc(NC(C)=O)cc1 (centres undefined),4.3,8.7,7.0,i,1.6
CN(C)C(=O)[C@H]1[C@H](CO)[C@H]2Cn3c(ccc(C4=CCCCC4)c3=O)[C@H]2N1CC1CC1,-1.5,-2.4,-1.0,i,1.8
CN1C(=O)c2cc(NC(=O)c3cccc(F)c3)ccc2OC[C@@H]2O[C@@H](CC(=O)Nc3ccccc3)CC[C@@H]21,-2.0,-9.0,3.4,i,1.9
COc1cccc(C(=O)NCCN2CCC(n3c(=O)[nH]c4ccccc43)CC2)c1,-3.6,-5.9,-3.5,i,0.3
Cc1noc(C)c1NC(=O)Nc1ccc2c(c1)CC(=O)N([C@@H](C)CO)C[C@@H](C)[C@@H](CN(C)C(=O)NC1CCCCC1)O2,2.0,7.3,-3.8,i,3.7
CC(C)NC(=O)N(C)C[C@@H]1Oc2ncc(-c3cncnc3)cc2C(=O)N([C@H](C)CO)C[C@@H]1C,0.9,6.2,-2.1,i,-13.0

# Individual results from the list:
# Ecoli rRNA inh OD600 result of `COc1ccc(C2Nc3cccc(O)c3C(=O)N2Cc2ccccc2)cc1COc1ccc(NC(C)=O)cc1` (centres undefined) = 8.7
# Ecoli rRNA inh OD600 result of `C[C@@H]1CN([C@@H](C)CO)C(=O)c2cc(C#CC3CCCCC3)cnc2O[C@H]1CN(C)C(=O)c1ccncc1` = 7.9

# Three records picked at random from the list so far, as already listed:
SMILES,Ecoli rRNA inh,Ecoli rRNA inh OD600,Ecoli rRNA inh RFP,FGF22 binding,AF4-AF9 inh
CN(C)C(=O)[C@H]1[C@H](CO)[C@H]2Cn3c(ccc(C4=CCCCC4)c3=O)[C@H]2N1CC1CC1,-1.5,-2.4,-1.0,i,1.8
COc1ccc(C2Nc3cccc(O)c3C(=O)N2Cc2ccccc2)cc1COc1ccc(NC(C)=O)cc1 (centres undefined),4.3,8.7,7.0,i,1.6
Cc1noc(C)c1NC(=O)Nc1ccc2c(c1)CC(=O)N([C@@H](C)CO)C[C@@H](C)[C@@H](CN(C)C(=O)NC1CCCCC1)O2,2.0,7.3,-3.8,i,3.7

# High-throughput results (PubChem BioAssay)

# These rows are one share of the data (hit frequency here may not be typical).
